Screening results from PubChem BioAssay.
Calb FLC – C. albicans growth modulation with fluconazole; growth inhibition, % (test concentration not listed); actives 0.57% (n = 300,000); C. albicans CaCi-2 (fluconazole-resistant clinical isolate) + fluconazole, Alamar Blue growth, 48 h;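 active means most replicates above 75%; inconclusive means exactly half above 75%; inactive means most below 75%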;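 further: all wells also contain fluconazole at 8 µg/ml as a sub-toxic cotreatment; 0% = median of DMSO wells and 100% = median of geldanamycin control wells; wells of about 8 µL received 7.5 nL stock; the first replicate is given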
A1 inh – inhibitors of the anti-apoptotic protein A1, read as caspase activation. MEF A1-2A-BIM cells, Caspase-Glo 3/7 luminescence, 3 h; percent of clofoctol response, vehicle zero. caspase activation, % (concentration not given with the values). actives 0.066% (n = 330,000);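 active means over half of replicate activation scores above 10%, or exactly half above 10 with the replicate mean above 10; inconclusive means replicate mean below 10 yet half the replicates above 10; inactive means over half of replicates below 10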;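 further: wells of about 30 µL received 50 nL stock; many hits fall short of the cut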
T cruzi inh – blocks replication of Trypanosoma cruzi; T. cruzi beta-gal in NIH3T3, luminescence, 90 h; inhibition, % (no concentration beside the values); actives 1.4% (n = 300,000); AID 1885;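 active means mean inhibition across valid replicates above about 55%, limit read from the data; inconclusive means mean below that limit but half or more replicates reach it; inactive means mean below it, under half of replicates reach it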;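 further: signal also drops with host cell toxicity which is not excluded here; 0% = plate median of DMSO wells and 100% = zero luminescence signal; higher percent means less beta-gal luminescence so fewer parasites; stock transfer was 50 nL into about 50 µL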
RanGTP-Impb inh – inhibitors of RanGTP-importin-beta interaction, primary screen, biochemical, FRET, CFP-Ran, YFP-importin-beta, homogeneous. AID 2216. inhibition, % (concentration not given with the values). actives 1.1% (n = 300,000). cell-free CFP-Ran/YFP-importin-beta FRET ratio;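 active means most replicates above 15%; inconclusive means exactly half above 15%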;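 further: 0% = DMSO wells and 100% = Ran loaded with GDP instead of GTP; wells of about 40 µL received 100 nL stock; the first replicate is given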
MLL AF4-AF9 inh – MLL-AF4/AF9 protein interaction inhibition. P42568. AlphaScreen, biotin-AF4 peptide binding to FLAG-AF9. inhibition, % at 10 µM. actives 0.47% (n = 350,000). AID 651704;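 active means every replicate reaching a set inhibition limit, whatever the replicate mean, cut at about 25% in these data; inconclusive means mean inhibition reaches that limit but some replicates miss it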;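 further: 0% = plate neutral control median and 100% = total signal loss; the record names both 10 and 1 µM as test concentration; the first replicate is given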
Vif A3G – HIV-1 Vif–A3G interaction blockers – biochemical, TR-FRET, GST-Vif 1-94, biotin-A3G peptide, dose response retest, primary screen (AID 1117319) | TR-FRET GST-Vif / biotin-A3G peptide binding; higher % means a stronger effect; test concentration not given here; strong numbers were not always called active | inhibition, %; hits with a dose series show IC50 in µM | actives 0.57% (n = 260,000);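 active means above the screen mean plus three standard deviations and confirmed in dose response; inconclusive means results disagree or hit not tested in dose response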;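 further: Vif residues 1-94 fused to GST binding biotinylated APOBEC3G peptide 110-148; 0% = full assay without inhibitor and 100% = GST in place of GST-Vif; retest series ran down from 100 µM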
Beta apoptosis – beta cell apoptosis inhibition; actives 0.8% (n = 300,000); AID 435005; protection from apoptosis, % (concentration not given with the values); INS-1E cytokine-induced death, ATP luminescence, 48 h; percent of positive-control rescue, neutral wells zero;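 active means all replicates at 75% or more, or half of them and the mean; inconclusive means half reach 75% but not the mean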;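 further: 0% = cytokine-treated negative control wells and 100% = positive control rescue; higher means more ATP so stronger rescue from cytokine killing; wells of about 40 µL received 100 nL stock; the first replicate is given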
LANA-H2A inh – blocks KSHV LANA binding to histone H2A/H2B | actives 0.6% (n = 320,000) | AID 2629 | cell-free LANA-H2A/H2B peptide, fluorescence polarization | inhibition, % (test concentration not listed) | Q9QR71; in the data active means inhibition mostly above about 10%, no sharp cut-off; inactive means mostly below about 6.7%;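 further: stock transfer was 7.5 nL into about 10 µL; 0% = median of vehicle wells and 100% = median of positive control wells; one replicate is shown; the record names a cut of 25% in any replicate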
Target sequence (Q9QR71 whole entry, looked up): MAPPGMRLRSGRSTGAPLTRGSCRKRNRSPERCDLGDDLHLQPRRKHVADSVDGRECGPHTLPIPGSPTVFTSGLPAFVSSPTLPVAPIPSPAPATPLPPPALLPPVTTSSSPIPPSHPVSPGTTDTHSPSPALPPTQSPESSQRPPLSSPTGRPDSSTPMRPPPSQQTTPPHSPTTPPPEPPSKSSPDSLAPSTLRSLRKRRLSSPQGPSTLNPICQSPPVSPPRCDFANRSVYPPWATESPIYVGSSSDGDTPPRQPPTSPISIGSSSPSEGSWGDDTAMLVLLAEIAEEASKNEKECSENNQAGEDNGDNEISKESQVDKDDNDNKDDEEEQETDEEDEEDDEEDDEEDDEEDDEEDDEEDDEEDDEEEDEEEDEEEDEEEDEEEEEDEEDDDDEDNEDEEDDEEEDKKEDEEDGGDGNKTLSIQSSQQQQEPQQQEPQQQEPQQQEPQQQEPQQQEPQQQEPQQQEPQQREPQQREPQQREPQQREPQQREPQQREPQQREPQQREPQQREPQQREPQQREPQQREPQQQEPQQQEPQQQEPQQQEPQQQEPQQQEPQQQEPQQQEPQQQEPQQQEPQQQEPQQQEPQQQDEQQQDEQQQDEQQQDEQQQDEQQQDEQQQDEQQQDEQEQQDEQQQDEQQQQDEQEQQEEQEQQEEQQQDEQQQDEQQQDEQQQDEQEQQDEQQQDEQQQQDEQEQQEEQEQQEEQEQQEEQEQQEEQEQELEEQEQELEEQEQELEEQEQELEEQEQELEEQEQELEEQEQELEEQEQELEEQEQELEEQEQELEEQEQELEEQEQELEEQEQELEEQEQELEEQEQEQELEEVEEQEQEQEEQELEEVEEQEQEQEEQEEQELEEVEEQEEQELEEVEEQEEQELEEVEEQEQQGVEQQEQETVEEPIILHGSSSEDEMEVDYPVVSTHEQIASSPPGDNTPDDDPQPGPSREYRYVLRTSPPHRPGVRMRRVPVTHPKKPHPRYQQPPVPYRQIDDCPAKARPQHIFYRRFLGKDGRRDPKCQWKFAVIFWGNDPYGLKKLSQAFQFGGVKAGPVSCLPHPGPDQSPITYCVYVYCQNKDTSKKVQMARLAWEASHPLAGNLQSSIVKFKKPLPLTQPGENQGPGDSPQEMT
The depositor's hits bear a star; u = inconclusive; x = no result given.

SMILES	Calb FLC	A1 inh	T cruzi inh	RanGTP-Impb inh	MLL AF4-AF9 inh	Vif A3G	Beta apoptosis	LANA-H2A inh
CN(C)CCNC(=O)c1ccc2c(=O)n(Cc3ccc(Cl)cc3)c(=S)[nH]c2c1	10	0.1	11	4.4	6.5	x	-1	-3.6
CC(C)(C)OC(=O)N1CCCN(C(=O)Nc2ccc(OC(F)(F)F)cc2)CC1	12	0.2	0	4.9	-1.7	-1%	3	3.5
CC(C)[C@@H]1NC(=O)c2cc([N+](=O)[O-])cc(I)c2OCC[C@@H](C(N)=O)NC(=O)[C@H](CCC(=O)O)NC1=O	-9	u	-3	0.4	0.1	-4%	-7	-1.0
CC(C)c1ccc(S(=O)(=O)Nc2ccc(O)c(Sc3ncn[nH]3)c2)cc1	3	-1.0	-8	0.0	-3.3	1%	-2	-0.3
COc1cc(S(=O)(=O)N2CCCCC2)ccc1NC(=O)c1ccc(F)cc1	-8	-0.5	29	4.6	x	-6%	-6	6.7
CCOC(=O)N1CCC(NC(=O)Cc2cn(C)c3ccccc23)CC1	4	-0.5	-3	-3.9	x	-1%	-2	-0.9
COc1ccccc1C(=O)Nc1cccc2cccnc12	28	0.1	-5	5.6	-1.2	x	0	-2.0
O=C(NN1C(=O)C2C(c3ccccc3)C=CC(c3ccccc3)C2C1=O)c1ccccc1 (stereo not drawn)	-5	0.7	1	-0.1	-33	6%	-6	6.5
O=[N+]([O-])c1cc([N+](=O)[O-])c(Oc2ccc(F)cc2)cc1NN1CCCCC1	-2	0.2	-5	-16	1.5	x	7	7.0
Cc1ccc(S(=O)(=O)N2CCN(CC(=O)N/N=C/c3ccccc3OCC(=O)O)CC2)cc1	-2	-0.8	-11	1.1	-1.7	20%	-8	-2.5
Cc1c(NC(=O)CN2C(=O)NC(C)(c3ccccc3)C2=O)c(=O)n(-c2ccccc2)n1C (stereo not drawn)	5	0.7	-12	-3.3	-3.1	2%	-4	5.1
COc1ccc(C)cc1S(=O)(=O)N(C)CC(=O)N1CCN(c2ccccc2)CC1	-4	0.6	-5	-12	0.1	9%	-6	-3.2
O=[N+]([O-])c1ccccc1SNc1ccccn1	-19	0.6	-8	-2.3	x	-11%	-18	-2.9
O=C(CCn1c(=O)[nH]c2ccsc2c1=O)N(CCc1ccccc1)Cc1ccccc1	40	-0.5	19	0.7	x	4%	8	2.9
NC(=O)Cn1c(=O)n(CCC(=O)Nc2ccc(F)cc2)c(=O)c2sccc21	8	0.0	-2	-2.5	0.8	x	2	0.5
CCN1CCCC1CN(Cc1cc2ccc(C)cc2[nH]c1=O)C(=S)Nc1ccc(F)cc1 (stereo not drawn)	4	-0.8	27	1.4	5.6	x	5	-0.9
Cc1ccc(C(=O)NNC(=S)NC(=O)c2ccc(Cl)cc2Cl)cc1	40	0.0	-9	-0.1	-13	0%	x	2.6
Cc1ccc(CNC(=S)N(C)C)cc1	-5	1.0	-33	0.6	-5.2	x	-7	2.9
OC1CCN(c2c3c(nc4cc(-c5ccc(F)cc5)nn24)CCC3)CC1	-2	-1.5	21	u	x	1%	4	1.6
O=c1nc(NC2CCCC2)ccn1Cc1cccc(Br)c1	-6	1.7	12	-3.4	x	-6%	x	4.2
CNc1nc(Cl)c(SC)c(N2CCOCC2)n1	43	0.1	-15	1.9	0.1	-5%	-8	3.9
Cc1ccc(-c2ccc(CCC(=O)O)n2-c2ccc(C(=O)O)cc2)cc1	-2	-0.9	-5	0.9	-6.8	4%	5	-0.6
CCN1/C(=C2\OC(=S)N(C)C2=O)C=Cc2ccccc21	6	-0.2	4	0.0	-2.7	-1%	-6	2.1
COc1ccc(CCNC(=O)C2CCN(c3ccc(N4CCOCC4)nn3)CC2)c(OC)c1	-4	0.7	31	5.0	-8.9	5%	x	-3.3
CCn1c(SCC(=O)NNC(=O)c2ccc(OC)cc2)nnc1C(C)C	-2	0.9	6	0.8	-0.1	x	3	-0.1
CCOc1cc(S(=O)(=O)Nc2ccccn2)ccc1F	-1	-0.2	-3	-0.2	x	6%	-2	6.5
CCc1cc(=O)oc2cc(C)cc(OCC(=O)NCC3CCC(C(=O)O)CC3)c12 (stereo not drawn)	-4	0.5	5	1.0	-10	x	2	1.3
CCOc1ccc(/C=C/C(=O)c2c(O)cc(C)oc2=O)cc1	2	0.1	2	-2.5	5.0	-1%	-3	-3.1
CCOCCCNC(=S)Nc1ccc2nc(N3CCOCC3)cc(C)c2c1	5	-1.2	9	2.8	2.8	-1%	14	0.9
O=C(c1ccccc1)c1ccc(OC(=O)C2CCCCC2)cc1	-6	-0.3	-12	-0.2	-2.8	-3%	-2	-0.5
CCc1cccc(NC(=O)CNC(=O)N2CC(=O)Nc3ccccc32)c1	-1	1.4	6	u	0.0	-1%	-3	-1.7
CCOC(=O)C1CCCN(C(=O)COC(=O)c2cccs2)C1 (stereo not drawn)	x	0.1	x	x	-1.5	2%	-8	1.1
COCCCNC(=O)CN1C(=O)CSc2ncccc21	-6	1.4	1	5.7	9.0	7%	x	-1.7
CC(=O)Nc1ccc(N(C(=O)c2ccco2)C(C(=O)NC2CCCC2)c2cccs2)cc1 (stereo not drawn)	-10	-0.3	-14	-1.8	1.1	-3%	0	3.3
Cc1nc2ccccc2nc1OCc1cccc(Cl)c1	-4	0.6	-1	1.1	x	x	1	-4.9
CN(C)c1ccc(-c2cc(O)c3ncccc3c2)cc1	x	-8.3	x	x	15	x	88*	-0.5
Nn1c(-c2ccccc2)nc2cc(Cl)ccc2c1=O	-3	-1.5	-11	4.8	1.6	u	-2	-3.2
O=C(O)c1ccc(-c2nc(-c3ccccc3)cs2)cc1	u	-6.8	-1	0.6	0.0	-15%	-3	4.7
COc1nc(N(C)S(=O)(=O)c2ccc(C)cc2)nc(C)c1Br	7	0.0	-9	0.0	0.5	x	x	3.2
O=C(c1ccc(Cl)c(Cl)c1)N1CCCC1	-3	0.2	-7	0.0	x	1%	-3	1.7
COc1ccc(C(=O)NCC(=O)NCC(=O)OCC(=O)c2cccs2)cc1	-6	0.1	-7	9.7	x	-1%	2	1.4
Cc1cc(C)nc(Nc2cccc(C(F)(F)F)c2)n1	3	0.4	11	0.1	-0.6	0%	0	5.0
Nc1ccc(Br)c[n+]1Cc1cccc2cccnc12	-11	0.3	-7	1.4	-31	x	2	-4.5
Cc1ccc(/C=C2\SC(=S)N(CCC(=O)N3CCCCC3)C2=O)cc1	9	-1.6	-11	-17	-19	-1%	-20	1.1
Cc1ccc(/C=C(\NC(=O)c2ccccc2)C(=O)NC2CCN(Cc3ccccc3)CC2)o1	1	0.8	-4	u	3.2	-7%	-1	-1.7
O=C(/C=C/c1ccco1)NCC(=O)N/N=C/c1ccc([N+](=O)[O-])cc1	8	-0.2	-6	0.9	-0.8	32%	-5	-0.7
CCOC(=O)[C@H]1[C@H]2COc3ccc(C)cc3[C@@H]2N2C(=O)CN(Cc3ccco3)C(=O)[C@@]12C	x	-0.3	x	x	-1.7	x	-9	3.0
CC(=O)N1Cc2cc(N)ccc2Oc2ccccc21	3	1.7	-6	-1.7	2.2	7%	-3	-3.0
CCNc1ccc(C(=O)OCC(=O)N2CCCC2)cc1[N+](=O)[O-]	1	-2.7	0	-2.8	0.3	1%	1	-17
Cc1ccc(/C=C/C(=O)OCC(=O)NCCN2C(=O)CSC2=O)cc1	-14	-0.5	-15	0.3	-0.2	6%	x	0.8

Next compounds follow.
SMILES	Calb FLC	A1 inh	T cruzi inh	RanGTP-Impb inh	MLL AF4-AF9 inh	Vif A3G	Beta apoptosis	LANA-H2A inh
Cc1ccc(C(C)C)cc1S(=O)(=O)NC1CC(C)(C)NC(C)(C)C1	-4	1.9	-8	5.8	-1.1	1%	-2	-0.5
COC(=O)c1cc(C(=O)NCCN2C(=O)S/C(=C\c3cccs3)C2=O)cc([N+](=O)[O-])c1	14	-0.9	35	u	x	u	-2	1.8
CCOc1ccc(-c2nc(C)sc2CC(=O)O)cc1	15	-0.2	0	-8.1	-4.5	0%	-14	5.1
COc1ccc(C(=O)Nc2ccc(-c3n[nH]c(=S)o3)cc2)cc1OC	8	-1.3	-2	-1.7	-1.6	x	3	3.6
O=C(N1CCCCC1)N1CCN(S(=O)(=O)c2ccccc2)CC1	-5	-1.1	-16	-0.3	2.5	x	-4	-5.5
Cc1nc2sccn2c(=O)c1S(=O)(=O)N1CCN(c2cccc(Cl)c2)CC1	-2	-1.0	10	-0.8	2.9	x	1	0.0
COc1ccc(OC)c(N(CC(=O)NCCSC2CCCCC2)S(=O)(=O)c2ccccc2)c1	3	0.0	6	-0.9	-0.1	-4%	9	4.5
Cc1ccc(S(=O)(=O)NCCCNS(=O)(=O)c2ccc(C)cc2)cc1	x	-1.4	x	x	u	2%	2	2.4
O=C(CSCC(=O)N1CCOCC1)Nc1nc(-c2ccccc2)cs1	24	-0.4	11	1.9	5.1	x	2	1.4
CC(C)(C)NC(=O)CN(Cc1cccs1)C(=O)CCN1CCc2ccccc21	u	0.3	44	-12	5.1	-8%	-5	3.7
CCOC(=O)N1CN(C(=O)OCC)CN(C(=O)OCC)C1	-6	0.6	-15	3.0	-2.0	-3%	-8	-8.7
COc1cc(/C=C2/C(=N)N3N=C(CC(=O)N4CCOCC4)SC3=NC2=O)ccc1OC(C)c1ccccc1 (stereo not drawn)	x	-0.2	12	3.1	-12	x	-3	2.4
O=C1NC2(Nc3ccccc31)C(=O)Nc1ccc(Br)cc12 (stereo not drawn)	40	-1.3	1	3.6	-4.3	-14%	7	-14
COc1ccc(C(=O)N/N=C(\C)CC(=O)N2CCN(C=O)CC2)cc1	-3	-0.3	8	0.2	x	8%	-1	7.4
CCc1nc2ccccc2c(C(=O)OCc2nnc(-c3ccccc3)o2)c1C	-8	0.0	6	u	x	-3%	3	11
COc1cc(-c2noc(C)c2-c2ccc(N(C)C)nc2)cc(OC)c1OC	3	-0.4	29	u	4.6	x	42	4.8
O=c1c2c(ncn1Cc1ccccc1)nc1n2CCC1	-23	0.9	-5	2.2	-3.5	0%	-4	4.0
COc1ccc(OC)c(C2=NOC(C(=O)Nc3cc(C)on3)C2)c1 (stereo not drawn)	-7	-2.2	-6	2.2	-148	-5%	-8	2.0
CC(C)NC(=O)COc1coc(CN2CCN(Cc3ccccc3)CC2)cc1=O	-2	-2.3	1	2.4	-3.4	x	x	-2.3
Cc1ccccc1CCNC(=O)C1CCC(=O)N(C2CCCCCC2)C1 (stereo not drawn)	-1	-0.3	-4	3.5	1.9	x	-3	-2.8
CC(C)OC(=O)c1ccc(S(N)(=O)=O)o1	-1	2.5	-12	4.5	x	x	-1	-2.4
CCCc1nnc(SCC(=O)Nc2cc(C)on2)n1CCOC	-4	-0.9	-12	1.9	2.4	x	-2	4.6
COc1ccc(CNC(=S)Nc2ccc(S(N)(=O)=O)cc2)cc1	1	-0.7	-24	2.7	-0.7	x	0	4.3
CCC(=O)Nc1ccc(Cl)c(NC(=O)C(C)C)c1	4	0.1	-11	0.0	-37	1%	4	3.0
